RecA splice inh – Mtb RecA intein splicing inhibitors, primary screen, biochemical, fluorescence, HTS; cell-free RecA intein splicing; AID 2221, 2009; 0.75% of 290,000 active; Protein RecA (Mycobacterium tuberculosis (strain ATCC 25618 / H37Rv)), P9WHJ3; inhibition, %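 (about 9 µM by stock and volumes)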; in the data active = inhibition above about 30%; inconclusive = no clear call, values can overlap the other calls;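 also: 0% = vehicle wells and 100% = reference inhibitor control wells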
Target sequence (P9WHJ3 whole entry, looked up, canonical isoform): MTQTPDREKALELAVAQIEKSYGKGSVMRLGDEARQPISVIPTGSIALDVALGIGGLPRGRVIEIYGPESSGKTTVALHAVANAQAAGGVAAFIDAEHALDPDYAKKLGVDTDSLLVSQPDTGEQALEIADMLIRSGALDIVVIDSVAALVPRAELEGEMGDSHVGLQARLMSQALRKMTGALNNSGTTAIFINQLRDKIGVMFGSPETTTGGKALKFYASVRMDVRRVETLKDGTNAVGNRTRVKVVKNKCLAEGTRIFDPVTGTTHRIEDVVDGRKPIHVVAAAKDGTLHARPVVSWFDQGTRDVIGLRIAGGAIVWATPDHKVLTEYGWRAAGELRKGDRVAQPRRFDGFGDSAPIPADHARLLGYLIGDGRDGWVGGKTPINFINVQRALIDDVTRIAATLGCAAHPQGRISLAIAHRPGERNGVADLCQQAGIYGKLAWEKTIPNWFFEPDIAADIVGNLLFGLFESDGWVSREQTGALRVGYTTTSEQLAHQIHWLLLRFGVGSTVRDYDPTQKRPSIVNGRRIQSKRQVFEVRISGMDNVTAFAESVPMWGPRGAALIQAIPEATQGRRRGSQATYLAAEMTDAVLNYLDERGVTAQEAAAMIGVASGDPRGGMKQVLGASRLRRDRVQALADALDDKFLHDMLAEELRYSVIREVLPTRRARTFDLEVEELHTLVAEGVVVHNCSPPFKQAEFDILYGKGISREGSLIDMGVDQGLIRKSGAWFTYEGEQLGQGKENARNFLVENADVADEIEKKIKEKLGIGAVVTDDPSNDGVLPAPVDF
YopH inh – YopH tyrosine phosphatase inhibitors, primary screen, biochemical, fluorescence Ex485/Em525; inhibition, %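 (about 10 µM by stock and volumes)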; YopH tyrosine phosphatase [Yersinia enterocolitica]; 0.16% of 140,000 active;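 active = inhibition of 50% or more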;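 also: controls were vehicle for no effect and minimum signal wells for full effect; inactives centre near -20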
Mtb H37Rv – M. tuberculosis H37Rv growth inhibitors, H37Rv strain (AID 1626) | M. tuberculosis H37Rv growth inhibition; higher % means a stronger effect | one-dose inhibition, % at 10 µM; IC50 in µM for titrated hits | 0.95% of 220,000 active;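 active = confirmed in a dose series; inconclusive = inhibition above 80% but not taken into the dose series; inactive = below 80% or under 30% at every dose of the series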;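 also: bacteria incubated seven days before Alamar blue readout; 0% = bacteria only wells and 100% = bacteria with antibiotic wells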
Mtb betalactam – beta-lactam sensitization of Mtb H37Rv, H37Rv. M. tuberculosis H37Rv growth with meropenem, percent inhibition; hits of this screen are not shown here. inhibition, % at 25 µM. 0.27% of 330,000 active. AID 434955, 2010;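 active = about 74% or more and at least 40 points above the plate without the antibiotic, then above 30% in a dose series; inconclusive = first-round hits that could not be retested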;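 also: growth measured after seven days incubation then overnight dye step; 0% = bacteria only wells and 100% = bacteria with antibiotic; twin plates without the antibiotic show which effects depend on it; some results filed as inactive read as strong as hits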
Arbovirus anti – antivirals against arbovirus infection, primary screen, cell-based, full library, 10K replicate subset; arbovirus infection cell-based antiviral screen; inhibition, % at 10 µM; 0.37% of 200,000 active;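 active = inhibition from about 30%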;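 also: bluetongue infection of BSR cells; cell survival read as ATP light after 72 h; 0% = infected wells without compound and 100% = uninfected wells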
Arbovirus anti repeat – also measured in Arbovirus anti; calls as there; inhibition, %; measured here: 10K subset replicate screen; many hits read low in the repeat;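 first of two repeat runs on a subset; 0% = infected and 100% = uninfected wells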
An asterisk follows results filed as active; ? = inconclusive; / = no result given. This is a subset; count on the stated rates, not on these rows.

SMILES	RecA splice inh	YopH inh	Mtb H37Rv	Mtb betalactam	Arbovirus anti	others
Cc1ccc(S(=O)(=O)Oc2ccc(/C=N/NC(=O)c3nn(C)cc3[N+](=O)[O-])cc2)cc1	-3.5	-31	0%	5	2
COc1cccc(/C=N/NC(=O)Cn2nc([N+](=O)[O-])cc2C)c1	1.8	/	-1%	5	/
CC(C)OCCCNC(=O)c1ccccc1Oc1ccccc1	0.5	-11	-4%	45	1
O=C(N/N=C/c1c(O)n(-c2ccccc2Cl)c(=O)c2ccccc12)C1COc2ccccc2O1 (stereo not drawn)	5.8	-12	-1%	6	-16
Cc1cc(C(=O)COc2ccc(Cl)cc2Br)c(C)n1C	5.0	/	-4%	13	-2
COc1ccc(-c2nc3ccccc3n2OC(=O)N(C)C)cc1	-0.8	-16	-9%	0	14
Cc1cccc(Nc2ccc(C(=O)O)cc2[N+](=O)[O-])c1C	2.4	/	/	-3	/
O=C1N/C(=N\N=C\c2cccs2)SC1Cc1ccc(Cl)cc1 (stereo not drawn)	0.6	-27	?	11	-22
Cc1ccc(-n2ccc(=O)c(-c3ccnc(SCc4cccc(Cl)c4)n3)n2)cc1	13	3	8%	2	-4
C=CCCCCCCCCC(=O)NNC1CC(=O)N(c2ccccc2)C1=O (stereo not drawn)	-0.6	/	-5%	-2	/
Cc1n[nH]c(=O)nc1NCc1ccccc1Cl	0.4	-26	-4%	-11	9
CCC(=O)NCCc1cc2cc(C)c(C)cc2[nH]c1=O	0.4	-45	/	6	5
N#CCCN(Cc1ccccc1)S(=O)(=O)c1cccs1	-3.0	/	/	-7	/
Cc1cc(C)c2c(CN3CCCCC3C)cc(=O)oc2c1 (stereo not drawn)	-0.1	/	/	4	/
Cc1cc(N2CCN(C)CC2)nc2ccc(NC(=S)N3CCCCCC3)cc12	-1.1	/	8%	5	-11
Cc1c(NC(=O)CCCN2C(=O)c3cccc4cccc(c34)C2=O)c(=O)n(-c2ccccc2)n1C	2.5	/	-2%	13	-2
Cc1ccc(O)c(C(CC(=O)NC2CCCCC2)c2ccccc2)c1 (stereo not drawn)	0.5	/	2%	7	-1
CCOc1cc(/C=C/C(=O)O)ccc1OCCO	-4.6	/	-4%	2	5
CCCc1cc(-c2[nH]ncc2-c2ccc3c(c2)OCCCO3)c(O)cc1O	5.4	-5	-7%	2	-29
Cc1nnc(SCCn2c(N3CCC(C)CC3)nc3c2c(=O)n(C)c(=O)n3C)s1	-2.5	3	-1%	-6	/
CC1=NN(C(=O)c2cccnc2)C(O)(C(F)(F)F)C1 (stereo not drawn)	/	/	1%	-4	8
CCN(CC)S(=O)(=O)c1cccc(C(=O)Nc2ccc(Cl)cn2)c1	-1.4	-9	-6%	3	-6
O=C(NCCN1CCOCC1)C(=O)NCC1OCCN1S(=O)(=O)c1ccc(Br)cc1 (stereo not drawn)	0.0	/	/	-16	/
Cc1ccc2[nH]c(=O)c(CN(Cc3cccs3)Cc3nnnn3CC3CCCO3)cc2c1 (stereo not drawn)	0.1	-17	-3%	2	-4

A run of entries from further up, for reference:
SMILES	RecA splice inh	YopH inh	Mtb H37Rv	Mtb betalactam	Arbovirus anti	others
Cc1ccc(S(=O)(=O)Oc2ccc(/C=N/NC(=O)c3nn(C)cc3[N+](=O)[O-])cc2)cc1	-3.5	-31	0%	5	2
COc1cccc(/C=N/NC(=O)Cn2nc([N+](=O)[O-])cc2C)c1	1.8	/	-1%	5	/
CC(C)OCCCNC(=O)c1ccccc1Oc1ccccc1	0.5	-11	-4%	45	1
O=C(N/N=C/c1c(O)n(-c2ccccc2Cl)c(=O)c2ccccc12)C1COc2ccccc2O1 (stereo not drawn)	5.8	-12	-1%	6	-16
Cc1cc(C(=O)COc2ccc(Cl)cc2Br)c(C)n1C	5.0	/	-4%	13	-2
COc1ccc(-c2nc3ccccc3n2OC(=O)N(C)C)cc1	-0.8	-16	-9%	0	14

Later entries.
SMILES	RecA splice inh	YopH inh	Mtb H37Rv	Mtb betalactam	Arbovirus anti	others
C=CCN(CC(=O)O)S(=O)(=O)c1ccccc1C(F)(F)F	-2.6	/	7%	-8	10
COc1ccc(NC(=O)C2CCCCN2S(=O)(=O)c2ccc(F)cc2)cc1 (stereo not drawn)	0.9	-11	-11%	1	-9	Arbovirus anti repeat=1
CC(C)N1CCc2c(sc(NC(=O)c3cc4cc([N+](=O)[O-])ccc4s3)c2C(N)=O)C1	3.7	/	-2%	/	-29
Nc1c(NC(=O)CC[n+]2ccccc2)cccc1[N+](=O)[O-]	6.8	-39	4%	3	5
CC(=O)Nc1ccc(-c2nnn(CC(=O)c3ccc(F)cc3)n2)cc1Cl	-1.1	/	1%	-2	/
Cc1ccc(C(=O)N2CCN3C(=O)c4ccccc4C23c2ccc(Cl)cc2)cc1 (stereo not drawn)	13	-18	7%	0	-21
Cc1ccc(C(=O)Nc2ccccc2C(=O)O)cc1NC(=O)COc1c(C)cccc1C	7.0	/	-14%	12	20
Cc1cc(=O)oc2cc(NC(=O)C3COc4ccccc4O3)ccc12 (stereo not drawn)	-0.4	-23	-4%	-9	-9
CCCC(=O)NCc1cc(-c2nn(C)c(=O)c3ccccc23)ccc1OC	-1.1	/	2%	-3	-7
COc1ccccc1N1CCN(C(=O)C(OC(C)=O)c2ccccc2)CC1 (stereo not drawn)	-2.1	-2	-9%	6	9
COc1ccc2oc(C(=O)OCC(=O)N3CCCC3=O)c(C)c2c1	1.5	/	/	-18	/
CCOC(=O)CSc1ccc(-c2nc3ccccc3[nH]2)cn1	-0.2	-17	3µM*	100	-4
CCN(CC)C(=O)Oc1ccc2c(=O)c(-c3ccc(OC)cc3)coc2c1	3.8	-47	18%	47	0
COc1ccc(N2CC(C(=O)Nc3nnc(SCc4ccccn4)s3)CC2=O)cc1 (stereo not drawn)	-2.5	-16	-6%	4	-11
CCOC(=O)/C(=C/c1ccc(OC)cc1)NC(=O)c1ccco1	-4.1	-23	-4%	6	-7
COc1ccccc1CNC(=O)C(C)n1nc(C)n2c(cc3occc32)c1=O (stereo not drawn)	0.4	/	/	0	/
Cc1ccccc1CCNCc1ccc(Br)cc1	3.5	-9	8%	-3	13
COc1ccc(N(C(=O)c2csnn2)C(C(=O)NC2CCCC2)c2ccccc2)cc1 (stereo not drawn)	-0.1	/	/	-6	/
O=C(Nc1ccccc1)c1snc2c(=O)[nH]cnc12	1.7	/	5%	2	-1
CCNC(=O)CC1SC(=Nc2ccccc2C)N(C)C1=O (stereo not drawn)	-0.4	-35	5%	12	3
CCOC(=O)c1c(N)sc(C(=O)N(C)C)c1CN1CCOCC1	-1.3	5	-10%	-2	12
NC(=O)CC(NC(=O)c1cccc(Br)c1)c1ccc(NC2CCN(Cc3ccccc3)CC2)c([N+](=O)[O-])c1 (stereo not drawn)	-1.6	/	/	-6	/
Cc1cc(-c2ccccc2C(=O)NCc2ccccc2)on1	6.0	-17	4%	-4	6
COc1ccc(/C=C/C(=O)N(CC(C)C)CC(C)C)cc1Br	1.0	-23	14%	68	-2

4 records picked at random from those above, as already listed:
SMILES	RecA splice inh	YopH inh	Mtb H37Rv	Mtb betalactam	Arbovirus anti	others
COc1ccc(N2CC(C(=O)Nc3nnc(SCc4ccccn4)s3)CC2=O)cc1 (stereo not drawn)	-2.5	-16	-6%	4	-11
CCN(CC)C(=O)Oc1ccc2c(=O)c(-c3ccc(OC)cc3)coc2c1	3.8	-47	18%	47	0
CCOC(=O)c1c(N)sc(C(=O)N(C)C)c1CN1CCOCC1	-1.3	5	-10%	-2	12
Cc1cc(-c2ccccc2C(=O)NCc2ccccc2)on1	6.0	-17	4%	-4	6

Other records follow:
SMILES	RecA splice inh	YopH inh	Mtb H37Rv	Mtb betalactam	Arbovirus anti	others
Cc1cccc(-c2noc(CCc3ccccc3)n2)c1	11	-35	-5%	-2	-3	Arbovirus anti repeat=0
Cn1c(SCC(=O)N2c3ccccc3Sc3ccccc32)nc2ccccc21	0.4	12	12%	0	-1
Fc1ccc(CSc2ncnc3scc(-c4ccccc4)c23)cc1	7.9	-17	17%	11	17
Cc1csc(NC(=O)c2cncc(Br)c2)n1	0.9	/	-3%	0	1
O=C(Cc1ccccc1)NNc1ccc2ccccc2c1	/	/	?	92	-28
O=C(OCc1nc2ccsc2c(=O)[nH]1)c1cc(Br)c(Br)s1	0.9	/	/	33	/
CSc1nnc(N2C(=O)C(O)=C(C(=O)c3ccc(C)o3)C2c2ccc(C)cc2)s1 (stereo not drawn)	-1.5	/	/	0	/
CCOC(=O)C(NC(=O)c1ccc(OC)cc1)(N1CCCC1=O)C(F)(F)F (stereo not drawn)	-0.4	3	5%	-6	-7
CCCCn1c(N)c(N(CC)C(=O)CCNC(=O)NC23CC4CC(CC(C4)C2)C3)c(=O)[nH]c1=O	-0.3	/	/	-20	/
COc1ccc(C)cc1NC(=O)CN1C(=O)COc2ccc(S(=O)(=O)N3CCCCC3)cc21	1.1	/	/	7	/
CCN(C(=O)c1coc(=O)c2ccccc12)c1cc(OC)ccc1OC	0.6	-38	-9%	1	-3
CCc1nn(CC(=O)NCCc2ccc(Cl)cc2)c(=O)c2cccn12	3.4	/	/	1	/
COc1ccc(CNC(=O)CSc2nc3cccnc3s2)cc1	-3.3	/	-8%	11	/
COc1cc(/C=N/NC(=S)NCc2ccco2)cc(OC)c1OC	2.1	-16	7%	-6	6
Cc1cc(C)n(CC(=O)n2c(C)c(C)c3ccccc32)n1	-0.7	-17	3%	-2	-5
O=C(c1cccc(C(=O)N(c2ccccn2)C2CCCCC2)c1)N(c1ccccn1)C1CCCCC1	-6.5	/	3%	-4	0
O=C(CCCC(=O)c1ccccc1)Nc1ccc(O)cc1	-2.1	/	/	-4	/
CCCCC(O)(CCCC)C(=O)N/N=C(\C)c1ccc(Cl)cc1	2.0	/	7%	-3	/
CCc1nn(CCCC(=O)N2CCN(c3cccc(C)c3C)CC2)c(=O)c2cc3occc3n12	1.0	/	/	9	/
COc1ccc(C(=O)N2CCC(c3ccccc3)CC2)c(OC)c1OC	-1.0	/	7%	2	16
CCCCn1c2nc3ccccc3nc2c2c(=O)n(CCC)cnc21	-2.5	-12	7%	-5	-1
CCCCn1c(N)c(N(CCOC)C(=O)C2CCN(S(=O)(=O)c3ccc(F)cc3)CC2)c(=O)[nH]c1=O	-3.0	/	/	-6	/
COc1ccc(CNC2CCSc3ccccc32)cc1OC (stereo not drawn)	0.5	/	/	-5	/
Cc1ccc(NC2Nc3cc(C)nn3S2)c(C)c1 (stereo not drawn)	0.2	/	3%	0	5
COC(=O)c1cnn(-c2ccccc2)c1C(OC)OC	-2.7	/	/	5	/
O=C(CCC(=O)N1CCSc2ccccc21)NC1CCCCC1	1.8	/	/	8	/
COc1ccc(C(=O)Cc2ccc(OC)c(OC)c2)cc1	0.3	1	-1%	11	8
O=C(COc1ccccc1)NCc1n[nH]c(=S)n1-c1ccccc1	1.3	/	-7%	-3	1
COc1cc(N)c(Cl)cc1C(=O)OCC(=O)NC1CCCC1	0.6	/	/	-1	/
CCOc1ccc(CCNC(=O)COC(=O)CNS(=O)(=O)c2ccc(NC(C)=O)cc2)cc1OCC	1.7	/	/	3	/
COc1ccc2nc3oc(C(=O)NCCCOC(C)C)cc3cc2c1	0.6	/	/	-7	/
CCN(CC)CCN1C(=O)C(=O)/C(=C(/O)c2c(C)[nH]c(C(=O)OC)c2C)C1c1ccco1 (stereo not drawn)	-5.4	-25	-3%	-15	0
O=C(Nc1cc([N+](=O)[O-])ccc1N1CCCC1)c1cccs1	1.6	/	/	3	/
Nn1c(SCc2nc3ccccc3[nH]2)nnc1-c1cccnc1	-0.3	-6	-2%	?	3	Arbovirus anti repeat=1
CCC(=O)NC(c1ccccc1Cl)c1c(O)ccc2ccccc12 (stereo not drawn)	2.0	-24	4%	-6	7
O=C(O)CC(CC(=O)Nc1ccc(C(=O)O)cc1)c1ccccc1 (stereo not drawn)	-2.2	/	-12%	1	/
CN(C)C(=O)Cn1c(SCC(=O)Nc2ccc3c(c2)OCO3)nc2ccccc21	2.1	-33	-26%	-8	-9
Cc1cc(C=C2C(=O)NC(=S)NC2=O)c(C)n1C1CCCC1	-2.6	/	36%	99	1
Cc1cccc(CN2CCC(C(=O)Nc3ccc(Oc4cccnc4)cc3)CC2)c1	0.4	/	/	-3	/
CC(C)C(=O)N1CCC(CN=Cc2c(O)n(C3CCCCC3)c(=O)n(C3CCCCC3)c2=O)CC1	/	-39	?	/	-44
COc1ccc(OC)c(NC(=O)c2cc(OC(C)=O)cc(C(=O)Nc3cc(OC)ccc3OC)c2)c1	-4.2	/	/	3	/
COc1cc2[nH]c(=O)n(CCC(=O)N3CCN(c4cccc(C)c4C)CC3)c(=O)c2cc1OC	-1.0	-26	-1%	8	8	Arbovirus anti repeat=-2

Source: PubChem BioAssay (several laboratories)
